Six1-Eya2 inh – Six1/Eya2 interaction inhibition; Q15475+O00167; AlphaScreen GST-Six1/His-Eya2 binding, biochemical; stronger effect = lower value; control for the full effect not named in the record; activity change, % (concentration not given with the values); 0.56% of 360,000 active; AID 651725; in the data active = activity change below about -65%; inconclusive = about -30% to -65%; inactive = above about -30%; also: % is scaled to controls: 0 for no effect and ±100 for the full control effect
Target sequence (O00167 whole entry, looked up): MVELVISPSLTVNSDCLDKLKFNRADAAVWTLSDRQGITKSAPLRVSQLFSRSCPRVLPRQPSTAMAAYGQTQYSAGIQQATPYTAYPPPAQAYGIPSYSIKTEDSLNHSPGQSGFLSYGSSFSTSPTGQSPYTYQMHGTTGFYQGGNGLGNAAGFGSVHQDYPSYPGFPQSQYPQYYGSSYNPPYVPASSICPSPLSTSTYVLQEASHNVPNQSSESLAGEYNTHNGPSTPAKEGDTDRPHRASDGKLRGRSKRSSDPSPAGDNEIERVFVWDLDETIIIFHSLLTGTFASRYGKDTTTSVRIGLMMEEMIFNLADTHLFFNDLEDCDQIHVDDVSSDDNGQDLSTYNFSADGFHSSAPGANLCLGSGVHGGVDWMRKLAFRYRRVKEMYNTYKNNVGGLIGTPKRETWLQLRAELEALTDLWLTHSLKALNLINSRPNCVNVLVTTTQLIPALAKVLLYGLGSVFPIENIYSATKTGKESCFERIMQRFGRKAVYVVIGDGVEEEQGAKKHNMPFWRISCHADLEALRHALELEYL
Target sequence (Q15475 whole entry, looked up): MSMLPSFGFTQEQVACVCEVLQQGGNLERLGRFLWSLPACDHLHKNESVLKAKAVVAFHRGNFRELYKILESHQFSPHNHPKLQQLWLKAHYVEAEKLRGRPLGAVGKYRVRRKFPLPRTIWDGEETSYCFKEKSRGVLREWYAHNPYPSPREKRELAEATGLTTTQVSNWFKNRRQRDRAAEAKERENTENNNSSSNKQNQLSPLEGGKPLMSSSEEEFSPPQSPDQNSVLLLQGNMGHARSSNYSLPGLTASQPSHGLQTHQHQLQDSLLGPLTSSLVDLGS
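AlphaScreen with GST-Six1 and His-Eya2 (5X mix: 250 nM and 500 nM), glutathione donor and nickel acceptor beads; buffer 50 mM Tris pH 8.0, 300 mM NaCl, 1 mM TCEP; 1 h at 37 C in the dark.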
D2 ag – agonists of human D2 dopamine receptor (beta-arrestin) | P14416 | DiscoveRx PathHunter D2 beta-arrestin, luminescence, 90 min; 100% = 57 uM dopamine signal | activation, % (concentration not given with the values) | 0.084% of 360,000 active; in the data active = activation above about 40%; inconclusive = about 15% to 40%; inactive = below about 15%; also: compound concentration not given in the record; the text of the record calls up to 30% inactive
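Agonist mode: compounds alone added to overnight-plated D2 PathHunter cells for 90 min at 37 C, with 57 uM final dopamine (EC100) defining full response. Beta-arrestin recruitment detected by chemiluminescent reagent, read after 1 h at ambient temperature.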
D2 potentiator – human D2 receptor positive allosteric modulation. P14416. DiscoveRx D2 beta-arrestin cells, luminescence, 90 min; 100% = 57 uM dopamine signal. potentiation, % (test concentration not listed). 0.23% of 360,000 active; active = potentiation of 50% or more; inconclusive = 30% to 50%; inactive = 30% or less;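 also: compound concentration not given in the record; tested on top of an EC20 dose of dopamine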
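PathHunter beta-arrestin assay in DiscoveRx D2 cells. Compounds were added with an EC20 of dopamine (50 nM final) for 90 min at 37 deg C. Luminescence was read 1 h after detection reagent, with 57 uM dopamine as the EC100 control.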
CtBP-E1A blk – inhibitors of CtBP/E1A interaction; AlphaScreen GST-E1A/His-CtBP binding, 1536-well; stronger effect = lower value; control for the full effect not named in the record; 0.49% of 340,000 active; activity change, % (no concentration beside the values); in the data active means activity change below about -65%; inconclusive means about -30% to -65%; inactive means above about -30%; also: % is scaled to controls: 0 for no effect and ±100 for the full control effect; compound concentration not given in the record
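AlphaScreen with 125 nM GST-E1A and 125 nM His-CtBP (5X stocks) in Tris pH 8.0, 300 mM NaCl, BSA, Tween 20, TCEP. Compounds preincubated 2 h at 37 deg C, then glutathione donor/nickel acceptor beads added for 1 h at 37 deg C in dark.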
PINK1 modulator – changes PINK1 expression | PINK1 immunofluorescence, high-content cytometry, 24 h | Potency, µM (top dose mostly 76.6 µM), without a hit: at the highest dose activation (PINK1 increase), hits mostly activators | 0.2% of 410,000 active; active = well fitted activation curve with a large enough effect; inconclusive = small, poorly fitted or top-dose-only effect; inactive = flat fitted curve, though single readings scatter; cell line not stated here;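 also: potency is read from the fitted curve at half-maximal effect; % of control where 0% means no effect; nearly all actives have a fitted effect of over 65% in size; a mitochondrial uncoupler was the plate control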
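Stable cell line, 250 cells/well, 12 h attachment; compounds pinned at 5 concentrations, 24 h; CCCP control. Fixed with nuclear dye, primary antibodies 12 h at 10 degrees C, secondary plus cell stain; laser-scanning cytometer read.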
TRPML1 ag – agonists of human TRPML1 channel. TRPML1-expressing cells, Ca2+ dye fluorescence, FDSS; host cell line not named in the record; reference of the full effect not given here. AID 624414. activation, % (test concentration not listed). 0.12% of 410,000 active. Q9GZU1; in the data active = activation above about 50%; inconclusive = about 30% to 50%; inactive = below about 30%; also: 0% is about no effect; the text of the record puts the active cut at 80%
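Tetracycline-induced TRPML1-DL cells are seeded and incubated overnight before loading with a no-wash Ca2+ dye and quencher. Agonist activity is taken from the 110 s fluorescence read following compound pin-transfer on an FDSS, before EC80 54-4 challenge.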
The depositor's hits bear a star; ? = inconclusive; / = no result given; & = joins results of further samples; [ ] = dose if it differs, or a comment.

SMILES | Six1-Eya2 inh | D2 ag | D2 potentiator | CtBP-E1A blk | PINK1 modulator | TRPML1 ag
COc1ccc(C(=O)N/N=C(\C)CC(=O)Nc2ccc(N(C)C)cc2)c(OC)c1 | -27 | 2.7 | -1 | -4 | -0.8% | -0.6
Cn1cc([N+](=O)[O-])c(C(=O)N2CCCCCC2)n1 | -12 | -0.4 | -6 | 4 | 1.6% | -0.4
COc1cccc(CN2CCNC(=O)C2CC(=O)NCCCC2CCCC2)c1OC (configuration not stated) | 0 | -3.4 | -3 | 4 | 3.0% | 1.1
Cc1cc(C(=O)Nc2ccc(C(=O)O)cc2)c(C)o1 | 3 | -2.5 | -8 | -4 | 1.6% | 0.1
COc1cc(/C=N\NC(=O)c2c(C)nc3cc(C)ccn23)ccc1O | -15 | 5.1 | -1 | / | 1.4% | 1.6
CC(C)C[C@@H]1Cc2[nH][nH]c(=O)c2[C@H](C)O1 | 2 | / | / | 1 | 0.7% | -0.3
N#Cc1cccc(N=Cc2c(O)ccc3ccccc23)c1 | 3 | 5.4 | ? | -5 | -1.3% | -0.4
COc1cc(C)ccc1OCc1cc(C(=O)N2CCCCCC2)no1 | 19 | -2.5 | -3 | 0 | 0.3% | 1.0
CCOC(=O)N1CCN(C(=O)CN(Cc2ccccc2)S(=O)(=O)c2ccc(OC)c(C)c2)CC1 | 11 | 2.3 | -11 | 1 | -0.8% | 1.6
CC12CCC(c3n[nH]c(=S)nc31)C2(C)C (configuration not stated) | 6 | -1.1 | -6 | 8 | 9.4% | 0.8
COc1cc(C(=O)OCCNC(=O)c2ccccc2)cc(OC)c1OC | -1 | 11 | 8 | 4 | 15% | 0.4
CCc1nc(Sc2nnnn2-c2ccccc2)c2c3c(sc2n1)CCCC3 | 4 | 1.2 | 5 | -11 | -0.1% | -0.1
CCC1COC(c2cccn2Cc2ccccc2Cl)=N1 (configuration not stated) | -8 | -6.6 | -4 | / | 12% | 1.4
OC1(c2cccnc2)CCN(Cc2nnnn2Cc2ccccc2)CC1 | 1 | -3.0 | -1 | 11 | 1.1% | 0.0
Cc1c(Br)ccc(NC(=O)Cn2nc(-c3cccs3)ccc2=O)c1C | -9 | 0.9 | 6 | 4 | 8.0% | -0.2
Cc1ccc2oc(C(=O)Nc3ccc(S(=O)(=O)Nc4onc(C)c4C)cc3)cc(=O)c2c1 | -2 | -0.8 | -9 | 0 | 0.1%&1.5% | -0.6&-0.9
CC(=O)Nc1cc2c3ccccc3n(C)c2cc1[N+](=O)[O-] | -17 | -1.6 | -4 | -19 | 7.8% | 1.1
Cc1nnc(SCC(=O)NC(C)(C)C)n1NCc1c(F)cccc1Cl | 7 | -3.3 | -3 | 0 | -1.0% | 0.1
Clc1ccc2nc(N3CCCCC3)sc2c1 | 2 | -3.4 | -1 | 1 | 6.2% | ?
Cc1ccc(NC(=O)C2(C)CCN2Cc2cccc3c2OCO3)cc1O (configuration not stated) | 11 | 2.2 | 1 | 17 | 1.0% | -0.8
O=C(NCc1ccco1)c1ccc(COCC(F)(F)C(F)F)cc1 | 0 | -3.5 | -18 | -4 | 0.6% | -0.6
CCCC(=O)N1CCC1(C)C(=O)NS(=O)(=O)c1ccccc1Cl (configuration not stated) | 5 | -6.3 | 0 | -3 | 0.2% | -0.7
Cc1ccc(N(C)S(=O)(=O)c2cccc(C(=O)NCCCN3CCCC3=O)c2)cc1 | 0 | -0.1 | -3 | / | 2.9% | -0.5
CC(C)NC(=O)C1CCN(Cc2cnn(-c3ccccc3)c2-n2cccc2)CC1 | -1 | -1.7 | -15 | 3 | 1.0% | 0.4
O=C(Nc1ccccc1N1CCOCC1)c1ccc(Cl)c(S(=O)(=O)NCc2ccco2)c1 | -3 | -3.4 | -19 | / | 0.5% | 4.0
Other records
SMILES | Six1-Eya2 inh | D2 ag | D2 potentiator | CtBP-E1A blk | PINK1 modulator | TRPML1 ag
CCOC(=O)C1=C(C)NC(C)=C(C(=O)OCC)C1C(=O)OCC(=O)NC1CCCCC1 | 17 | ? | -19 | -4 | -1.1% | 0.6
O=C1C2C3C=CC(O3)C2C(=O)N1N=Cc1ccc2c(c1)OCO2 (configuration not stated) | -2 | -0.9 | -3 | -1 | 0.5% | -0.1
Cc1ccccc1NC(=O)CCc1nnc2ccc(N3CCC4(CC3)OCCO4)nn12 | 2 | 0.7 | -11 | 10 | 0.3% | -0.8
Cc1cc(C(=O)O)cc(S(=O)(=O)Nc2ccccc2C(=O)NC2CC2)c1C | 3 | -1.4 | -9 | -7 | 2.6% | -0.1
CCCN(CC(=O)Nc1ccccc1OC)C(=O)C1CCCC1 | 0 | -4.3 | -16 | 0 | 0.0% | -0.8
COc1ccc(CNC(=O)C2CCC(=O)N(CCCN3CCCC3=O)C2)c(OC)c1 (configuration not stated) | 0 | 2.4 | 2 | 4 | 1.4% | 0.1
Cn1c(O)c(N=NC(=O)Cn2ccc(C(F)(F)F)n2)c2ccccc21 | -12 | -4.7 | -15 | -7 | 0.3% | -0.3
CCc1c(C(=O)N/N=C/c2ccsc2)csc1C | -1 | -0.2 | -15 | -1 | 3.3% | 1.7
CCc1nc2cc(Cl)c(Cl)cc2nc1CC | -8 | -3.2 | 1 | -19 | 0.3% | 0.1
Cc1ccc(NC(=O)NC2=NN(c3ccccc3)C(=O)/C2=C2/CCCN2C)cc1 | 4 | 6.8 | -16 | 8 | 1.8% | 1.3
COCCN(Cc1cc2cc3c(cc2nc1Cl)OCO3)C(C)=O | -1 | 1.6 | 0 | / | 2.0% | -0.8
Cc1c(C(=O)N2CCCC2)c(S(=O)(=O)NCCc2ccccc2)c(C)n1C | 0 | -3.4 | -5 | -7 | 1.8% | -1.0
CN(c1ccccc1)S(=O)(=O)c1ccc(Cl)c(C(=O)NCCc2c[nH]c3ccccc23)c1 | -16 | -0.4 | -6 | -13 | 3.0% | 0.9
CC(C)c1[nH]nc2c1C1(CCN(Cc3ccccc3)CC1)C(C#N)=C(N)O2 | -6 | 11 | 2 | 4 | 3.8% | 0.5
O=C(Nc1cccc2c1CCCC2)c1ccccc1Br | 9 | -3.1 | -13 | 5 | 8.5% | 1.3
O=C(Nc1cc(=O)c2ccccc2o1)N1CCOCC1 | -2 | -0.7 | -9 | -14 | 1.3% | 1.8
O=C(CSc1ncnc2ccccc12)Nc1ccc2c(c1)OCCO2 | 0 | -1.8 | -4 | 4 | 0.5% | 1.5
CC(=O)Nc1ccc(NC(=O)c2c(C)nn(Cc3ccccc3Cl)c2C)cc1 | -10 | -4.2 | -4 | -19 | 0.2% | 1.4
CCN(CC(=O)NC(C)(C)C)Cc1nc2c(Br)cc(Br)cc2c(=O)[nH]1 | -14 | 5.8 | -2 | -17 | ? | 0.5
c1ccc(C2=Nn3c(nnc3-c3ccccn3)SC2)cc1 | ? | -3.4 | -15 | ? | -1.8% | 2.3
CCOC(=O)Cc1csc(NC(=O)CN(C)S(=O)(=O)c2ccc3c(c2)CCC(=O)N3)n1 | 5 | -5.8 | 5 | 0 | -0.5% | -0.1
O=C(CN1CCOCC1)Nc1ccc(C2CCCCC2)cc1 | 4 | 1.5 | -2 | 5 | 23%[38.3 µM] | 0.1
CC(C)Nc1ccc(C(CC(N)=O)NC(=O)Cc2ccc(Cl)cc2)cc1[N+](=O)[O-] (configuration not stated) | -7 | -3.4 | -6 | -3 | 1.3% | 0.4
CC(=O)C1=C(O)CC(C)(C)CC1=NCc1nc2ccccc2[nH]1 | 1 | 2.5 | 2 | 3 | 0.7% | -0.5
COc1ccc(C2OCC3(CO2)SC(N)=NC3=O)cc1 (configuration not stated) | 7 | -0.4 | -18 | 12 | / | 0.1
The list goes on:
SMILES | Six1-Eya2 inh | D2 ag | D2 potentiator | CtBP-E1A blk | PINK1 modulator | TRPML1 ag
CCOc1cc(S(=O)(=O)Nc2ccc(CC)cc2)ccc1Cl | 7 | 0.5 | 2 | 11 | 5.9%[38.3 µM] | 1.5
COc1ccc(C(C(=O)NCC2CCCO2)N(C(=O)CNC(=O)c2cccs2)c2ccccc2C)cc1OC (configuration not stated) | 2 | -1.1 | -1 | 1 | 0.8% | 1.0
CC(C)N(CCNC(=O)C1CCCN(c2ncnc3c2nc2n3CCCCC2)C1)Cc1ccccc1 (configuration not stated) | 1 | -5.8 | -26 | -3 | -0.9% | -1.0
O=C(CSc1nc(-c2ccc(F)cc2)cs1)NCCN1C(=O)CSC1=O | 2 | -1.1 | -6 | -1 | 2.9% | -1.0
Cc1ccccc1Cn1c(C(C)O)nc2ccccc21 (configuration not stated) | 0 | -0.1 | -6 | 2 | -0.9% | 1.5
O=C(Nc1ccc(OCC(=O)N2CCN(S(=O)(=O)c3ccccc3)CC2)cc1)c1ccco1 | 0 | 1.6 | 1 | -1 | 0.5% | -1.1
COc1ccc(CC(N)c2csc(NC(=O)Nc3ccccc3Oc3ccccc3)n2)cc1 (configuration not stated) | -8 | -0.1 | 17 | -3 | -1.2% | -0.6
CC1CCc2nc(NC(=O)C3COc4ccccc4O3)sc2C1 (configuration not stated) | -3 | -6.1 | -13 | -9 | 1.4% | 0.5

Twelve neighbouring compounds already listed, quoted:
SMILES | Six1-Eya2 inh | D2 ag | D2 potentiator | CtBP-E1A blk | PINK1 modulator | TRPML1 ag
COc1ccc(C(=O)N/N=C(\C)CC(=O)Nc2ccc(N(C)C)cc2)c(OC)c1 | -27 | 2.7 | -1 | -4 | -0.8% | -0.6
Cn1cc([N+](=O)[O-])c(C(=O)N2CCCCCC2)n1 | -12 | -0.4 | -6 | 4 | 1.6% | -0.4
COc1cccc(CN2CCNC(=O)C2CC(=O)NCCCC2CCCC2)c1OC (configuration not stated) | 0 | -3.4 | -3 | 4 | 3.0% | 1.1
Cc1cc(C(=O)Nc2ccc(C(=O)O)cc2)c(C)o1 | 3 | -2.5 | -8 | -4 | 1.6% | 0.1
COc1cc(/C=N\NC(=O)c2c(C)nc3cc(C)ccn23)ccc1O | -15 | 5.1 | -1 | / | 1.4% | 1.6
CC(C)C[C@@H]1Cc2[nH][nH]c(=O)c2[C@H](C)O1 | 2 | / | / | 1 | 0.7% | -0.3
N#Cc1cccc(N=Cc2c(O)ccc3ccccc23)c1 | 3 | 5.4 | ? | -5 | -1.3% | -0.4
COc1cc(C)ccc1OCc1cc(C(=O)N2CCCCCC2)no1 | 19 | -2.5 | -3 | 0 | 0.3% | 1.0
CCOC(=O)N1CCN(C(=O)CN(Cc2ccccc2)S(=O)(=O)c2ccc(OC)c(C)c2)CC1 | 11 | 2.3 | -11 | 1 | -0.8% | 1.6
CC12CCC(c3n[nH]c(=S)nc31)C2(C)C (configuration not stated) | 6 | -1.1 | -6 | 8 | 9.4% | 0.8
COc1cc(C(=O)OCCNC(=O)c2ccccc2)cc(OC)c1OC | -1 | 11 | 8 | 4 | 15% | 0.4
CCc1nc(Sc2nnnn2-c2ccccc2)c2c3c(sc2n1)CCCC3 | 4 | 1.2 | 5 | -11 | -0.1% | -0.1

Screening data from PubChem BioAssay.
